From PubChem BioAssay
TRPV1 PAM: human TRPV1 potentiation; Q8NER1; TRPV1-expressing cells, Fluo-8 calcium influx, capsaicin EC20 potentiation; host cell line not named in the record; control for the full effect not named in the record; potentiation, % at 8.33 µM; actives 0.02% (n = 320,000); AID 540277; active means potentiation above 80%; inconclusive means 30% to 80%; inactive means below 30%; also: 0% is about no effect
Target sequence (Q8NER1 whole entry, looked up): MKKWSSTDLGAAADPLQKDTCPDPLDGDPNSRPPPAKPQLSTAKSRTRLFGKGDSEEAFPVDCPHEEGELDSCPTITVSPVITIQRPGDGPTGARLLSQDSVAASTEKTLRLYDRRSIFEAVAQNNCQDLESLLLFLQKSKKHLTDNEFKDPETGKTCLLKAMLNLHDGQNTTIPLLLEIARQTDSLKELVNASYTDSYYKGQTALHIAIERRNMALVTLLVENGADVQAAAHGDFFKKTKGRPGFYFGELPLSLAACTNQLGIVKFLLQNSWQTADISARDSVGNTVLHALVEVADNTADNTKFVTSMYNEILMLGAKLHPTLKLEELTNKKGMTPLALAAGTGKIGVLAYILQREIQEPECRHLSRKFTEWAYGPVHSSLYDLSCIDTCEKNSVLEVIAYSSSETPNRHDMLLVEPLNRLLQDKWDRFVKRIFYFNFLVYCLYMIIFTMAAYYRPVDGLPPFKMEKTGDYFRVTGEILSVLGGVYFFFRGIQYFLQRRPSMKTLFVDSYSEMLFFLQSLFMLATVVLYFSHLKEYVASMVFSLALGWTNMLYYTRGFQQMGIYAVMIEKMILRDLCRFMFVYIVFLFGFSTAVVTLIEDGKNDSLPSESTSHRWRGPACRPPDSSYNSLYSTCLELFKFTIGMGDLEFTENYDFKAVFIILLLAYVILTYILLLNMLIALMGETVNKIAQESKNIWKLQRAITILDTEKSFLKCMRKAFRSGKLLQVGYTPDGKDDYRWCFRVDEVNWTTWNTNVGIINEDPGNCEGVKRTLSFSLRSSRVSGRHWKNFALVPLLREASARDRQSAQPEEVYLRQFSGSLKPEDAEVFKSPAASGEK
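Fluo-8 calcium influx in TRPV1-expressing cells, kinetic read (ex 480/em 520 nm). Compound added and read 3 min for agonist activity, followed by capsaicin at EC20 final and 2 min further read for enhancement.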
* marks the source's active call; other numbers are inactive results; i = inactive; ? = inconclusive. This is a subset; the hit share may differ from the screen's.

SMILES	TRPV1 PAM
O=C(Nc1ccc(Cl)c(Cl)c1)Nc1cc(C(=O)NC2CC2)ccc1Cl	2
NC(=O)C1CCN(c2nc(-c3ccc(F)cc3)cs2)CC1	-19
COc1cccc(CC(NC(C)=O)C(=O)NC2CCN(c3c4c(nc5ncnn35)CCC4)CC2)c1OC (stereo not given)	-4
Cc1cc2nc(NC3=NCN(CCN4CCOCC4)CN3)nc(C)c2cc1C	0
CO[C@H]1C[C@@H]2CC[C@@H](C)[C@@](O)(O2)C(=O)C(=O)N2CCCC[C@H]2C(=O)O[C@H]([C@H](C)C[C@@H]2CC[C@@H](O)[C@H](OC)C2)CC(=O)[C@H](C)C=C(C)[C@@H](O)[C@@H](OC)C(=O)[C@H](C)C[C@H](C)C=CC=CC=C1C	20
O=C(CN1CCSCC1)N/N=C/c1ccc(Cl)cc1	3
COc1ccccc1-c1csc(-n2ncc(C#N)c2N)n1	3
CC(C)[C@@H]1NC(=O)c2cc([N+](=O)[O-])cc(I)c2NCC[C@@H](C(N)=O)NC(=O)[C@H](CO)NC1=O	10
O=C1Nc2ccccc2S/C1=C\C(=O)N1CCCC1	-19
CC(=O)[C@H]1[C@H](c2cccc(Cl)c2)C(C#N)(C#N)[C@@H]2c3ccccc3C=CN21	3
CNC(C)C#Cc1ccc2c(=O)c3c(OC)cccc3oc2c1 (stereo not given)	-1
Cn1c(=O)[nH]c(=O)c2c1nc(N1CCCC1)n2CCSc1nc2ccccc2[nH]1	5
COc1ccc(OC)c(N=C2SCCCN2C(=O)c2ccc(N3C(=O)CCC3=O)cc2)c1	5
CCc1nc(SCC#N)c(C#N)cc1C	7
O=C(Cc1ccccc1)N/N=C/c1ccccc1F	6
COc1ccc(NC(=S)N(CCO)Cc2ccccc2)cc1	-3
CN(C)CCNC(=O)C(=O)C1C(=O)Nc2ccccc21 (stereo not given)	1
CCn1c(SCC(=O)Nc2cc(NC(C)=O)ccc2OC)nnc1-c1ccncc1	1
COc1cc2c(cc1OC)C1O[C@](c3ccsc3)(C2)OC2=C1C(=O)CC(C)(C)C2	i
Cc1cccn2c(=O)c(C=Nc3c(C)n(C)n(-c4ccccc4)c3=O)c(N3CCCC3)nc12	-8
CC(C)(C)c1ccccc1NC(=O)c1c(O)c2cccc3c2n(c1=O)CC3	4
COc1ccc(C2C=C(c3ccc(Br)s3)Nc3ncnn32)cc1OC (stereo not given)	-6
O=C(COC(=O)c1cc(-c2ccncc2)nc2ccccc12)Nc1ccc2c(c1)OCO2	2
CNC(=O)c1c(NC(=O)c2ccc(S(=O)(=O)N3CCCC3)cc2)sc2c1CCN(C(C)C)C2	2
Cn1c2ccccc2n2c(=O)c(=O)n(CC(=O)N3CCCc4ccccc43)nc12	7
O=c1c(-c2nc3ccccc3o2)c2oc3ccccc3n2c2ccccc12	?
COc1cc(/C=C2/SC(=S)N(CC(=O)O)C2=O)ccc1OCC(=O)Nc1ccc(C)c(C)c1	-2
Cc1cc(C2=CC(C)(c3cc(C)oc3C)Nc3nc(C(F)(F)F)nn32)c(C)o1 (stereo not given)	14
O=c1c2cc(Br)cc(Br)c2oc2nc3n(c(=O)c12)CCCS3	-1
CCCC[C@]12Cc3cc(C#N)ccc3C(O1)c1c(cc(C)n(-c3ccccc3)c1=O)O2	i
Cc1ccc(C(=O)c2ccc(C(F)(F)F)cc2)cc1	-11
CC1(C)SC2[C@H](NC(=O)C(NC(=O)N3CCNC3=O)c3ccccc3)C(=O)N2C1C(=O)O (stereo not given in full)	12
CN(Cc1ccco1)c1ncnc2ccc(-c3ccccc3Cl)cc12	-3
CN(Cc1ccccc1NC(=O)c1ccc(S(=O)(=O)N(C)C)cc1)C1CCCCC1	-18
O=C(c1cccnc1)N1CCN(c2ccccc2Cl)CC1	-23
Cc1ccc(C2=NN(CC(=O)NCc3cccnc3)C(=O)CC2)cc1	-8
Clc1ccc(-c2nn3c(-c4ccncc4)nnc3s2)c(Cl)c1	-13
Cc1ccc(NC(=O)c2snc3c(=O)[nH]cnc23)cc1C	3
Cc1cc(C)n(C(=O)C23CC4CC(CC(C4)C2)C3)n1	10
COc1ccc(-c2c(C)n([O-])c3c([n+]2=O)CCCC3)cc1OC	-17
Cc1cccc2cc(/C=N/NC(=O)CN3CCCCC3)c(Cl)nc12	-2
C=CCC(Nc1ccccc1)c1ccc(OC)c(OC)c1 (stereo not given)	2
Cn1nnnc1Sc1ncnc2scc(-c3ccc(C#N)cc3)c12	-11
COCCN1C(=O)N[C@@H](c2ccc(Br)cc2)C(C(=O)OC)=C1C	-2
Cc1cccc(N(CC(=O)NC2CCCCC2)C(=O)CCC(=O)Nc2ccccn2)c1	-4
COc1cccc(-c2ccc(=O)n(CC(=O)Nc3ccc(S(=O)(=O)NCC(C)C)cc3)n2)c1	?
COc1ccc(-c2nnc3ccc(SCC(=O)Nc4cc(C)on4)nn23)cc1	-1
COc1ccccc1/C=N/NC(=Nc1ccc(C)cc1)c1nc2ccccc2s1	-8

Some of the entries so far, as a markdown table.
| Structure | TRPV1 PAM |
| --- | --- |
| O=C(Nc1ccc(Cl)c(Cl)c1)Nc1cc(C(=O)NC2CC2)ccc1Cl | 2 |
| NC(=O)C1CCN(c2nc(-c3ccc(F)cc3)cs2)CC1 | -19 |
| COc1cccc(CC(NC(C)=O)C(=O)NC2CCN(c3c4c(nc5ncnn35)CCC4)CC2)c1OC (stereo not given) | -4 |
| Cc1cc2nc(NC3=NCN(CCN4CCOCC4)CN3)nc(C)c2cc1C | 0 |
| CO[C@H]1C[C@@H]2CC[C@@H](C)[C@@](O)(O2)C(=O)C(=O)N2CCCC[C@H]2C(=O)O[C@H]([C@H](C)C[C@@H]2CC[C@@H](O)[C@H](OC)C2)CC(=O)[C@H](C)C=C(C)[C@@H](O)[C@@H](OC)C(=O)[C@H](C)C[C@H](C)C=CC=CC=C1C | 20 |
| O=C(CN1CCSCC1)N/N=C/c1ccc(Cl)cc1 | 3 |
| COc1ccccc1-c1csc(-n2ncc(C#N)c2N)n1 | 3 |
| CC(C)[C@@H]1NC(=O)c2cc([N+](=O)[O-])cc(I)c2NCC[C@@H](C(N)=O)NC(=O)[C@H](CO)NC1=O | 10 |
| O=C1Nc2ccccc2S/C1=C\C(=O)N1CCCC1 | -19 |
| CC(=O)[C@H]1[C@H](c2cccc(Cl)c2)C(C#N)(C#N)[C@@H]2c3ccccc3C=CN21 | 3 |
| CNC(C)C#Cc1ccc2c(=O)c3c(OC)cccc3oc2c1 (stereo not given) | -1 |
| Cn1c(=O)[nH]c(=O)c2c1nc(N1CCCC1)n2CCSc1nc2ccccc2[nH]1 | 5 |
| COc1ccc(OC)c(N=C2SCCCN2C(=O)c2ccc(N3C(=O)CCC3=O)cc2)c1 | 5 |
| CCc1nc(SCC#N)c(C#N)cc1C | 7 |
| O=C(Cc1ccccc1)N/N=C/c1ccccc1F | 6 |
| COc1ccc(NC(=S)N(CCO)Cc2ccccc2)cc1 | -3 |
| CN(C)CCNC(=O)C(=O)C1C(=O)Nc2ccccc21 (stereo not given) | 1 |
| CCn1c(SCC(=O)Nc2cc(NC(C)=O)ccc2OC)nnc1-c1ccncc1 | 1 |

(continued)
SMILES	TRPV1 PAM
O=C(Cc1ccc(Cl)cc1)NNC(=O)C1CC=CCC1C(=O)O (stereo not given)	7
CC1=NN(c2ccccc2)C(=O)/C1=C/c1cc2cc(C)ccc2nc1N1CCCCC1	-8
COc1ccc([C@]23Cc4cc(C#N)ccc4[C@H](O2)c2c(cc(C)n(Cc4ccccc4)c2=O)O3)cc1	i
CCN(CC)CCCN1C(=O)C(O)=C(C(=O)c2ccco2)C1c1cc(OC)ccc1OC (stereo not given)	-10
CN1C2CCC1/C(=C\c1ccccc1Cl)C(=O)/C2=C\c1ccccc1Cl	2
Cc1ccc(S(=O)(=O)N2CC=C(C(=O)NCc3ccc(F)cc3)CC2)cc1	6
COc1cccc(S(=O)(=O)NC2CCN(C#N)C2)c1 (stereo not given)	-8
Nc1ncn(C2O[C@H](CO)[C@@H](O)[C@H]2O)c(=O)n1 (stereo not given in full)	-1
Cc1cc(C)nc(S/C=C/C(=O)c2ccc(F)cc2)n1	-15
CCOc1ccc(C2=Cc3cc(OC)c(OC)cc3C(=C(Cl)Cl)O2)cc1	0
CCCCC(=O)Nc1sc2c(c1C(=O)OCC)CCC(C=O)=C2Cl	-18
CCN1C(=NCC(C)C)N[C@@H](c2ccccc2)[C@H](C(=O)OC)[C@H]1C	5
CCc1ccc(NC(=O)c2nc(S(=O)(=O)Cc3ccccc3)ncc2Cl)cc1	-4
CCOC(=O)c1c(C)[nH]c(C(=O)Nc2ccc3c(c2)OCO3)c1C	-8
COc1ccc2nc(/C=N/NC(=O)[C@H](C)NC(=O)OC(C)(C)C)ccc2c1	16
Cc1cccc2cc(CN(Cc3cccnc3)C(=O)c3cccs3)c3nnnn3c12	-3
O=C(NCCc1ccccc1)C(=O)NCC1CCNCC1	9
Fc1ccc(/C=C2\CCCC3=C2NC(=S)NC3c2ccc(F)cc2)cc1 (stereo not given)	7
CC(C)n1nc(C(=O)N2CCN(S(=O)(=O)c3cccs3)CC2)c2ccccc2c1=O	3
CC(C)=CCC/C(C)=C/CC(C)(C)CNCCN1CCNCC1	-11
CCN1CCN(CCNC(=O)C2CCN(Cc3nc(-c4ccc(Cl)cc4)oc3C)CC2)CC1	29
COc1ccc(CNC(=O)c2sc3nc4c(c(C(F)(F)F)c3c2N)CCC4)cc1	-26
Cc1c(-c2cc[n+]([O-])cc2)oc2ccc(Br)cc2c1=O	4
Cc1cc(C)c2c(=O)n(CC(=O)N3CCC(Cc4ccccc4)CC3)sc2n1	-6
O=C(Nc1ccccc1-c1ccccc1)C(=O)Nc1ccccc1-c1ccccc1	8
COc1cccc(C(=O)NCC2CCCO2)c1 (stereo not given)	-1
CCOCCCNC(=S)NCCCNc1nc2ccc(C)cc2cc1C#N	-3
CC12CN3CC(C)(CN(C1)C31C(=O)N(Cc3ccccc3)c3ccccc31)C2=O (stereo not given)	3
CCc1cc2c(=O)c(-c3cscn3)coc2cc1OC	-16
NC1=NC(c2cn[nH]c2-c2ccc(F)cc2)n2c(nc3ccccc32)N1 (stereo not given)	4
CCCN1C(=O)/C(=C/c2ccc(C)o2)NC1=S	?
O=C1[C@H]2[C@H]3[C@H](O)[C@H](O)C/C(=N\OC[C@@H](O)COCc4ccco4)[C@@H]3CC[C@H]2C(=O)N1c1ccc(F)cc1F	13
COc1ccc(-c2[nH]ncc2CN(Cc2nccn2C)C(C)C)cc1F	8
COc1cc2[nH]c(C(=O)Nc3ccc(F)cc3)cc2c(OC)c1OC	-6
N[C@@H](Cc1ccc(O)c(I)c1)C(=O)O	-7
CN1CCN(c2ccc([N+](=O)[O-])cc2/C=N/NC(=O)c2cccc([N+](=O)[O-])c2)CC1	2
COc1ccc(C(C)N2CC34C=CC(O3)C(C(=O)OCC(C)C)C4C2=O)cc1 (stereo not given)	16
Cc1nc(N2CCN(c3ccccc3)CC2)[nH]c(=O)c1Cc1cccc2ccccc12	-1
O=C(C1CCCCC1)N1CC(=O)N2CCc3ccccc3C2C1 (stereo not given)	-14
CCn1cnc2c(Nc3cc(F)cc(F)c3)nc(C#N)nc21	8
CCCn1c(SCC(=O)Nc2sc(C)c(C)c2C(=O)OC)nc2c1c(=O)n(C)c(=O)n2C	?
OCCCc1nc2n(n1)C(c1cccs1)C=C(c1ccc(Br)cc1)N2 (stereo not given)	17
COc1cc2nc3c4ccccc4n(CC#N)c3nc2cc1OC	9
COc1ccc(C2C(C#N)=C(N)N3C(=C2C#N)Sc2ccccc23)cc1 (stereo not given)	-9
CCCNc1ncnc2c1cnn2-c1ccc(OC)cc1	-8
Cc1cc(NC(=O)CSc2nnc3c(C)cc4cc5c(cc4n23)OCO5)no1	5
COc1ccc(C(O)c2nc3ccccc3s2)cc1 (stereo not given)	5
O=C1Nc2ccccc2C12Nc1ccccc1S2 (stereo not given)	-2
Cc1ccc(-c2nc3ccccc3n3c(C)nnc23)cc1	3
COc1cc2[nH]c(=S)nc(NC3CCCC3)c2cc1OC	10
Cc1cccc(-n2c(N)cc(=O)nc2SCC(=O)Nc2nnc(CC(C)C)s2)c1	-17
O=C(CN1CCCN(S(=O)(=O)c2ccc(Br)cc2)CC1)Nc1ccc2c(c1)OCO2	12
COc1ccc(N=Nc2n(C)c3ccccc3[n+]2C)cc1	1
CCOC(=O)N1CCN(C(=O)c2nn(-c3cc(OC)cc(OC)c3)c(=O)c3ccccc23)CC1	-10
O=C1Nc2ccc(Br)cc2/C1=C/c1ccc(C(=O)O)cc1	9
COc1cccc(C2/C(=C(\O)c3c(C)nc4c(C)cccn34)C(=O)C(=O)N2CCCN(C)C)c1OC (stereo not given)	0
Cn1c(=O)c2c3c(sc2n2c(SCc4ccc5c(c4)OCO5)nnc12)COC(C)(C)C3	25
C=CC[C@@H]1C=C[C@H](O/N=C/[C@@H](NS(=O)(=O)c2ccc(C)cc2)[C@H](C)/C=C/CC(=O)OC)[C@@H](CO)O1	-1
CCN(CC)c1ccc2cc(C(=O)NCc3ccc(F)cc3)c(=N)oc2c1	-2
CCN1CCN(C2CC(=O)NC2=O)CC1 (stereo not given)	0

Remaining list, next part
SMILES	TRPV1 PAM
CCSc1nc(N)c2c3c(sc2n1)CN(C)CC3	19
CC(C)c1ccc(/C=C/C(=O)NC2=NCCS2)cc1	18
CCCCn1c(C)cc2c(c1=O)C1O[C@](CCCC)(Cc3cc(C#N)ccc31)O2	i
Cc1conc1NC(c1cccs1)c1ccc2cccnc2c1O (stereo not given)	11
Cc1nc2c3c(-c4ccccc4)c(-c4ccccc4)oc3ncn2n1	11
O=C(NCC(=O)N(c1cccnc1)C(C(=O)NC1CCCC1)c1ccc(F)cc1)c1ccco1 (stereo not given)	-13
CN(C)c1nc(N(C)C)nc(N(C#N)CN2C(=O)c3ccccc3C2=O)n1	11
CCCCCCN(C(=O)CCCCCN1C(=O)NC(c2cccc([N+](=O)[O-])c2)C(C(=O)OCc2ccccc2)=C1C)C(C(=O)NCCCC)c1ccc(OCC(=O)OC)c(C(=O)OC)c1 (stereo not given)	18
